BJeLR viability = MLPCN primary cell-based screen for lethality selective to Ras in HRASV12 cells; BJeLR (HRASV12) viability, CellTiter-Glo ATP luminescence, 48 h; reference of the scale not given here; inhibition, % (concentration not given with the values); hit rate 0.17% among 300,000;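 active = replicate mean above 50%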;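 also: 50 nL library stock added to about 25 µL; numbers are from one replicate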
Bead autofluor = compound fluorescence in toxin protease inhibitor counterscreen; compound autofluorescence counterscreen, microsphere flow cytometry; stronger effect = higher value; fluorescence intensity (no concentration beside the values); hit rate 3.1% among 360,000; AID 624483;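 active = at least 3 SD above the mean of all compounds, about 16000 in these data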;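 also: 100 nL of 1 mM stock went into each well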
ugtP null kill = growth inhibition of ugtP-null S. aureus, primary screen, RN4220 ugtP deletion, OD600; growth inhibition, % (concentration not given with the values); hit rate 0.54% among 330,000; 16 h; some inactives read as strong as hits; AID 1259309, 2017;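 active = z-score under -3 and OD600 up to 0.15 on both plates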;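 also: plate controls were untreated wells for no effect and antibiotic for full effect; wells of about 80 µL received 100 nL stock; the first replicate is given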
Sa RN4220 lethal = growth inhibition of S. aureus RN4220, primary screen, OD600; inhibition, % (concentration not given with the values); AID 1259311, 2017; hit rate 0.33% among 330,000; 16 h;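 active = z-score of -3 or lower and OD600 up to 0.18 on both plates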;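 also: plate controls were untreated cells for no effect and reference antibiotic for full effect; stock transfer was 100 nL into about 80 µL; one replicate is shown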
PrP 5UTR inh = inhibition of PrP 5' UTR reporter expression. cell-based PrP 5' UTR mRNA reporter, plate reader. inhibition, % (concentration not given with the values). hit rate 0.35% among 340,000;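 active = every replicate at 50% or more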;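 also: 0 = median of the neutral control wells; tested in H4 reporter cells; numbers are from one replicate; inactives centre near -14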
Mtb hypoxia rep = PubChem AID 1159583 | M. tuberculosis hypoxia-regulated fluorescent reporter, fluorescence | fluorescence inhibition, % (concentration not given with the values) | hit rate 0.1% among 300,000;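 active = 35 to 45% if threefold the growth effect, above 45% if 1.5-fold the growth effect; inactive = the rest, general growth blockers included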;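 also: wells of about 50 µL received 100 nL stock; 0% = vehicle wells and 100% = reference inhibitor wells; whole bacteria with a GFP reporter of the hypoxia response; strong numbers were not always called active; many hits fall short of the cut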
Mtb hypoxia rep growth = also measured in Mtb hypoxia rep; calls as there; growth inhibition, %; measured here: M. tuberculosis growth (absorbance);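 0% = vehicle and 100% = reference antibiotic; read after six days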
Numbers without * were called inactive; · = no result given. Hits appear at their usual frequency; 4% or so of the library scored in one or more.

Start of the listing, in advance (four entries):
SMILES	BJeLR viability	Bead autofluor	ugtP null kill	Sa RN4220 lethal	PrP 5UTR inh	Mtb hypoxia rep	Mtb hypoxia rep growth
C=CCn1c(C)cc(C(=O)COc2nncc3ccccc23)c1C	-2	4520	-5	-8.5	-58	-6	21
Cc1cc(Oc2ccc([N+](=O)[O-])cc2)nc(N2CCOCC2)n1	2	3733	12	8.7	-3	9	14
OCC#Cc1cnc2ccccc2c1	-6	2661	1	-7.3	-4	10	2
CC(=O)N/N=C(\C)CC(=O)Nc1ccc2c(c1)OCCO2	4	2786	·	·	-17	·	·

This part in full, from the start:
SMILES	BJeLR viability	Bead autofluor	ugtP null kill	Sa RN4220 lethal	PrP 5UTR inh	Mtb hypoxia rep	Mtb hypoxia rep growth
C=CCn1c(C)cc(C(=O)COc2nncc3ccccc23)c1C	-2	4520	-5	-8.5	-58	-6	21
Cc1cc(Oc2ccc([N+](=O)[O-])cc2)nc(N2CCOCC2)n1	2	3733	12	8.7	-3	9	14
OCC#Cc1cnc2ccccc2c1	-6	2661	1	-7.3	-4	10	2
CC(=O)N/N=C(\C)CC(=O)Nc1ccc2c(c1)OCCO2	4	2786	·	·	-17	·	·
Fc1ccccc1COc1cccc(/C=N/n2cnnc2)c1	12	24150*	·	·	-12	·	·
COc1ccc(CNCC(=O)Nc2cccc(S(N)(=O)=O)c2)cc1	-9	3884	2	2.7	-9	8	2
CC(=O)C1=C(O)C(=O)N(CCCN2CCOCC2)C1c1ccccc1[N+](=O)[O-] (stereo unspecified)	-3	·	-1	6.9	·	-5	-5
O=C(CN1CCCCC1)Nc1cccc(-n2cnnn2)c1	2	4182	1	3.6	-20	6	12
COc1cccc(-c2cc3nc(-c4ccccc4)cc(N4CCC5(CC4)OCCO5)n3n2)c1	15	10291	75	-7.9	1	-1	3
COCCOC(=O)C1=C(C)NC2=C(C(=O)CCC2)C1c1ccc(N(C)C)cc1 (stereo unspecified)	-7	8106	5	1.6	-27	7	6
CC(O)(CS(=O)(=O)Cc1ccccc1)C(=O)Nc1ccc(C(F)(F)F)cc1 (stereo unspecified)	-2	23000*	4	2.3	-22	1	3
CCOC(=O)COc1ccc2c(c1)c(C(C)=O)c(C)n2Cc1ccccc1	-2	4314	6	5.0	-20	-8	-5
Cc1ccc(S(=O)(=O)c2c(C)nn(C(C)(C)C)c2OC(=O)CC(C)C)cc1	-1	4501	4	5.2	-15	-2	1
O=C(NCCC(=O)N1CCN(S(=O)(=O)c2ccccc2Cl)CC1)Nc1ccccc1	·	8275	11	3.7	-6	1	-2
CCCNS(=O)(=O)c1ccc(OCC(=O)N2CCc3ccccc3C2)c(C)c1	-5	3155	-3	6.1	-23	0	-1
COc1ccc(OC)c(CNn2c(-c3ccccc3F)nc3ccccc3c2=O)c1	0	4669	-4	5.2	-21	3	-9
O=C(c1ccc(Cl)c(S(=O)(=O)NCc2ccccc2)c1)N1CCN(c2ccccn2)CC1	4	18872*	8	2.2	-2	7	6
CC(=O)N/N=C(\C)CCc1ccccc1	9	4068	·	·	-10	·	·
COc1ccccc1N1CCN(C2CCCN(Cc3cc(F)cc(F)c3)C2)CC1 (stereo unspecified)	-3	3248	14	3.9	-13	0	5
Cc1nc2nc(NCc3cccs3)nn2c(C)c1Cl	-5	10413	0	2.8	-44	5	8
CC(C)n1c(SCC(=O)NC2CCCCC2)nnc1-c1ccco1	-4	3642	6	1.7	-14	2	-13
O=P1(O)C=C(c2ccccc2)OC(c2ccccc2)=C1	2	4577	-1	0.4	-56	·	·
CN1CCN(C(=O)CSc2nnc(COc3ccc(Cl)cc3)o2)CC1	-3	3136	9	7.8	-5	9	5
CCCCc1ccc(Nc2nc(N3CCOCC3)nc(N3CCOCC3)n2)cc1	-8	4750	22	-0.7	-29	1	14
CC(=NNC(=S)NC1CCCCC1)c1ccc(C)o1	·	·	-1	8.7	·	13	12
COc1ccc(S(=O)(=O)N2CCN(Cc3ccco3)CC2)cc1	7	3853	1	0.9	-21	1	7
C/C(=N\NC(=O)CNc1cccc(C(F)(F)F)c1)c1cccs1	9	2618	·	·	-42	·	·
NC(=O)c1ccc(-n2nnnc2Oc2ccc(Br)cc2)cc1	-22	4537	3	1.6	-24	0	-5
C/C(=N\NC(=O)c1c(Br)cnn1C)c1ccc(NC(=O)c2ccc(F)cc2)cc1	1	2665	·	·	-47	·	·
Cc1cccc(NC(=O)c2ccc(Cl)c(NC(=O)c3ccncc3)c2)c1C	-2	4151	1	-2.7	-24	-7	9

Profiles, quoted from the list.
Profile of `C/C(=N\NC(=O)CNc1cccc(C(F)(F)F)c1)c1cccs1` = BJeLR viability = 9; Bead autofluor = 2618; ugtP null kill = ·; Sa RN4220 lethal = ·; PrP 5UTR inh = -42; Mtb hypoxia rep = ·; Mtb hypoxia rep growth = ·
Profile of `CC(C)n1c(SCC(=O)NC2CCCCC2)nnc1-c1ccco1` = BJeLR viability = -4; Bead autofluor = 3642; ugtP null kill = 6; Sa RN4220 lethal = 1.7; PrP 5UTR inh = -14; Mtb hypoxia rep = 2; Mtb hypoxia rep growth = -13

Carrying on.
SMILES	BJeLR viability	Bead autofluor	ugtP null kill	Sa RN4220 lethal	PrP 5UTR inh	Mtb hypoxia rep	Mtb hypoxia rep growth
O=C1C(Cl)=C(NCCN2CCCCC2)C(=O)c2ccccc21	-7	2728	21	28	-11	25	5
O=C(N=C1SCC(=O)N1c1ccccc1Cl)c1ccco1	15	9229	0	5.9	·	4	5
O=C(Nc1ccc2c(c1)OCO2)Nc1ccc(Cl)cc1Cl	0	5854	-10	4.5	-66	14	6
CC(C)=Nc1ccccc1C1COC(=O)C1=N (stereo unspecified)	-1	2353	-2	4.1	-14	6	2
CN(Cc1ccccc1F)c1nc(-c2cccs2)nc2ccccc12	-1	2825	27	2.2	-1	13	10
COc1ccc(CCn2c(=O)[nH]c3cc(C(=O)NCCCN4CCOCC4)ccc3c2=O)cc1OC	5	4756	3	9.6	-15	5	2
CCCN(C(=O)c1cc(S(=O)(=O)N2CCN(CC)CC2)ccc1Cl)C1CCS(=O)(=O)C1 (stereo unspecified)	·	6720	6	3.5	11	1	1
CCOC(=O)C(C)n1cnc2c(nnn2-c2ccccc2)c1=O (stereo unspecified)	-24	5869	-2	1.7	-4	-1	1
CS(=O)(=O)N(CC(=O)Nc1ccc(F)c(F)c1)c1cccc([N+](=O)[O-])c1	-1	2576	8	0.9	-7	17	10
CCN(CCn1cccn1)C(=O)CCc1nnc(-c2ccccc2)o1	3	2470	13	5.4	-34	-2	3
Cc1ccccc1NC(=O)C1CCCN(S(=O)(=O)c2ccc(-n3cnnn3)cc2)C1 (stereo unspecified)	-7	2756	8	0.3	-14	-4	6
CC(=O)c1cccc(OCC(=O)Nc2cccc(C(=O)Nc3c(C)n(C)n(-c4ccccc4)c3=O)c2)c1	·	5651	6	4.2	5	0	-2
CN(C(=O)CSc1nc2c(c(=O)[nH]1)CCCC2)C1CCCCC1	-5	20234*	1	4.1	3	9	10
Cc1cc(C)c(C#N)c(Sc2ccccc2N)n1	-2	2549	67	-5.0	-13	-9	-9
OCCN1CCN(CCOc2ccccc2-c2ccccc2)CC1	2	1955	0	5.1	-54	8	17
Cc1ccc(C(=O)N/C(=C/c2ccccc2)C(=O)NCC2CCCO2)cc1 (stereo unspecified)	10	4757	·	·	-15	·	·
Cc1cc(OC(C)C(=O)NC2CCN(Cc3ccccc3)CC2)c2c(C)cc(=O)oc2c1 (stereo unspecified)	-13	6792	4	2.2	2	3	7
COc1ccc(NS(=O)(=O)c2ccc(C)c(C(=O)N(C)Cc3ccc(OC)cc3OC)c2)cc1	2	5681	-2	1.7	-18	-7	10
O=C(Cn1nnc(-c2ccccc2NC(=O)c2ccco2)n1)NC1CCCCC1	-22	11791	-1	3.1	-18	18	11
CCOC(=O)C1=NNC2(CC(=O)N(c3cc(C)cc(C)c3)C2=O)C1 (stereo unspecified)	9	4514	3	0.9	0	12	-3
Cc1ccc(C)c(NC(=O)COC(=O)c2cccc3c2C(=O)c2ccccc2C3=O)c1	-5	2401	11	22	-2	4	7
C=CCc1ccc(OCCCNCc2ccccc2)c(OC)c1	0	4197	-6	-0.2	-16	0	3
O=C(O)/C=C\C(=O)Nc1ccc(N2CCN(c3ccc(Cl)c(Cl)c3)CC2)cc1	1	4770	·	·	-1	·	·
N#Cc1ccc(OCC(=O)N/N=C(\CCC(=O)O)c2cccs2)cc1	-3	4221	·	·	-19	·	·
CN1CCN(c2ccc(Cl)cc2NC(=O)c2ccc(S(=O)(=O)N3CCCCCC3)cc2)CC1	0	3342	-13	-4.2	11	0	15
O=C(CSc1nnc(Cc2ccccc2)o1)NC1CC2CCC1C2 (stereo unspecified)	7	3278	-1	3.8	-14	·	·
Cc1cccc2sc(NS(=O)(=O)c3ccccc3)nc12	6	5352	4	15	-20	8	2
Nc1nnc(CC(=O)NN=Cc2cc([N+](=O)[O-])cc(Br)c2O)s1	·	·	-5	25	·	2	-6
O=C(CC1C(=O)NCCN1CC1CCCCC1)NCc1ccccc1Cl (stereo unspecified)	0	2977	1	11	-29	13	5
O=C(Nc1ccccc1)c1cccc(Cn2cc(C(F)(F)F)ccc2=O)c1	7	4286	6	2.3	0	2	9
O=C(Oc1ccccc1)c1cccc(N2C(=O)CCC2=O)c1	0	8216	5	3.3	-11	9	3
Cc1ccc(S(=O)(=O)NCC(c2ccccc2)N2CCN(c3ccc(F)cc3)CC2)cc1 (stereo unspecified)	-2	5106	10	-3.8	-22	-6	-7
CN(C)C(=O)c1ccc(-c2cc(C(F)(F)F)nn2C)s1	-4	·	8	1.7	·	2	-2
O=S(=O)(c1ccc2ccccc2c1)N1CCc2ccccc21	1	4181	1	2.7	-24	15	5
Cc1ccc(/C=C/c2ccc(=O)n(Cc3ccc(Cl)cc3Cl)n2)cc1	10	2106	-5	-8.2	-9	·	·
C=CCNC(=O)c1ccccc1NC(=O)C1COc2ccccc2O1 (stereo unspecified)	-5	2104	6	0.5	-24	-6	-20
COc1ccc(NC(=O)CSc2nn3c(=O)c(C)nnc3s2)cc1	-7	6183	1	-0.9	-1	2	0
C[C@@H](NC(=O)Cn1cnc2c(NCc3ccccc3)ncnc21)c1cccc2ccccc12	·	3517	-4	-4.9	-21	4	2
CCCC12CN3CC(C)(CN(C1)C31CCCCC1)C2=O	1	3594	2	1.8	-15	15	6
CCCn1c(Cc2ccccc2)nnc1SCC(=O)N1CCOCC1	6	4081	1	4.4	-21	5	4
O=C(C1CC(=O)N(c2ccc(Cl)cc2)C1)N1CCN(Cc2ccc3c(c2)OCO3)CC1 (stereo unspecified)	-3	2926	3	6.2	-10	9	10
CCOC(=O)c1sc(N2C(=O)C(O)=C(C(=O)c3ccco3)C2c2ccco2)nc1C (stereo unspecified)	4	6341	-8	4.8	-32	4	-4
O=C(NCCc1cccs1)c1ccc(Cl)cc1	-2	4696	16	-4.1	-59	·	·
CCC(C)(C)NC(=O)C(c1cccc(OC)c1OC)N(CCOC)C(=O)CCC(=O)Nc1cc(C)on1 (stereo unspecified)	-7	4212	8	0.6	-7	4	-5
C=CCn1c(SCC(=O)Nc2ccccc2OC)nnc1-c1ccccn1	0	16901*	-2	0.1	-28	2	9
NC(=O)c1cccn(Cc2ccc(C(F)(F)F)cc2)c1=O	8	3306	2	2.6	0	-3	-3
CCc1ccc2c(c1)c(N=NC1=NC(=O)CS1)c(O)n2C	-1	3389	-6	-21	-25	5	8
Cc1ccc2nc(Cl)c(C=Nn3c(C)nnc3C)cc2c1	·	·	-1	2.8	·	5	-1
O=C(CSc1ncn[nH]1)Nc1cccc2ccccc12	-6	3980	3	2.3	-28	-5	0
C1=C(CCNCC2CC2)CCCC1	-4	10768	4	5.6	-53	6	6
CCOC(=O)/C(C#N)=N\Nc1cc(Cl)ccc1OC	0	6355	·	·	-28	·	·
CCn1c(-c2cc(Br)ccc2O)n[nH]c1=S	3	9031	-1	3.1	-9	5	6
N#CCc1nc2ccccc2c(=O)[nH]1	-4	4635	-6	-1.2	-15	-4	-6
c1ccc(OCCCc2nc(-c3ccncc3)no2)cc1	3	4316	13	7.0	-9	-1	7
COc1ccc(S(=O)(=O)NC(N)=NCCc2ccccc2OC)cc1	0	3073	-5	-0.3	-22	3	16
NC(=O)c1cc([N+](=O)[O-])ccc1NCc1cccc2ccccc12	·	3876	8	4.5	-10	6	1
